Screens from PubChem BioAssay.
HTT cytoprotect: protects HTT-Q103 PC12 cells, measured by ATP; PC12 HTT-Q103 induced, cytoprotection, ATP luminescence, 40 h; Potency, µM (top dose mostly 56.4 µM), inactives show cytoprotection (ATP increase), actives largely listed as activators; actives 0.14% (n = 230,000); AID 1471;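 further: % of control where 0% means no effect; nearly all actives have a fitted effect of over 45% in size; toxic huntingtin expression switched on by the ecdysone agonist tebufenozide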
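PC12 cells with ecdysone-inducible HTT exon 1 Q103-GFP, induced with 100 nM tebufenozide and co-treated with library compounds in a dose series (1536-well, 1500 cells/well). Cytoprotection read as ATP content by ATPlite luminescence.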
L3MBTL1 block: inhibitors of human L3MBTL1. Q9Y468. AlphaScreen L3MBTL1–H3K9me1 peptide binding. Potency, µM (highest dose often 57.1 µM), for the others: top-dose activity, negative = inhibition, actives largely listed as inhibitors. actives 0.66% (n = 230,000); further: on the % scale 0 is the no-effect control and ±100 the full control effect; nearly all actives have a fitted effect of over 60% in size
Target sequence (Q9Y468 whole entry, looked up): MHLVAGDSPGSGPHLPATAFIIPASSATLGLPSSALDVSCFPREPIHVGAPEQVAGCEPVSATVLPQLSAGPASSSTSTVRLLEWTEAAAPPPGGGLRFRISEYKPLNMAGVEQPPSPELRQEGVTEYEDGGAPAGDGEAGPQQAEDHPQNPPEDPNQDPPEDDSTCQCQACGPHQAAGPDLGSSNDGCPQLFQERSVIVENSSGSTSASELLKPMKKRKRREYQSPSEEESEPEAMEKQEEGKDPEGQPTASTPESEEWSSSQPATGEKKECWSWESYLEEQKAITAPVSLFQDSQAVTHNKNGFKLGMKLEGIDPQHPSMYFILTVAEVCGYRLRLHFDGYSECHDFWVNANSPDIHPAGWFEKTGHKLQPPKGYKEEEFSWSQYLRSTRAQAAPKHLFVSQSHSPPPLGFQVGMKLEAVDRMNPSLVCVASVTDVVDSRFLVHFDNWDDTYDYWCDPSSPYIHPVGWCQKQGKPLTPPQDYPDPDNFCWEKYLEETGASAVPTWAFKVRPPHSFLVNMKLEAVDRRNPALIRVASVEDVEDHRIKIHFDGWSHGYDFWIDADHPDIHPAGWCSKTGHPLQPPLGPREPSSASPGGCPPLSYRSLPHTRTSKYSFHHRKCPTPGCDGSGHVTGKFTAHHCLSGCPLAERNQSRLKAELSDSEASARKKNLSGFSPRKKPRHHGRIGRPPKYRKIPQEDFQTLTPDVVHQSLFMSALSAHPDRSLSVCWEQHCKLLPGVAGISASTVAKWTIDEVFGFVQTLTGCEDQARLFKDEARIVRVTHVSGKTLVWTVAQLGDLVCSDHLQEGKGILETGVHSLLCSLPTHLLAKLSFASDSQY
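AlphaScreen assay: L3MBTL1 (50 nM final) was preincubated 30 min at room temperature with biotinylated H3(1-15)K9me1 peptide (75 nM final), then 30 min with library compounds; streptavidin donor and nickel chelate acceptor beads (10 ug/mL final) added, 30 min dark.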
Tau fluor counter: counter-screen for tau fibril formation inhibitors. tau K18 P301L (four-repeat tau fragment) Alexa594 fluorescence, heparin fibrillization. Potency, µM (highest dose often 57.7 µM), without a hit: top-dose activity change, negative = decrease. actives 0.93% (n = 280,000); further: on the % scale 0 is the no-effect control and ±100 the full control effect; nearly all actives have a fitted effect of over 55% in size
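Human K18 P301L tau (15 uM unlabeled plus 0.24 uM Alexa 594-labeled, final) in 100 mM sodium acetate pH 7 was mixed with compound and 20 uM heparin and incubated 6 hr at 37 C.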
Tau fibril FP: inhibitors of human tau fibril formation; P10636; K18 P301L tau heparin fibrillization, Alexa594 FP, 6 h; Potency, µM (doses to about 57.7 µM), without a hit: at the top dose activity, negative = inhibition, most hits filed as inhibitors; actives 0.39% (n = 280,000); AID 1468; further: on the % scale 0 is the no-effect control and ±100 the full control effect; nearly all actives have a fitted effect of over 55% in size
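K18 P301L tau (15 uM unlabeled/0.24 uM Alexa 594-labeled, final) + compound + heparin 20 uM final; 100 mM NaOAc pH 7; 6 hr 37 C; ThT 30 uM final added, 1 hr RT; FP ex 555/em 632 nm.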
* = called active by the depositor; . = not tested or not shown; & = joins results of further samples; [ ] = remark or other dose. The call rests on the fitted dose curve; in most records, active means well fitted curve in the direction sought with a large enough effect; inconclusive means small, poorly fitted or top-dose-only effect, or another doubt; inactive means no such curve, though single readings can be large; an effect the other way counts as inactive or inconclusive. Potency means the concentration at half of the fitted maximal effect.

Sequence of screens – L3MBTL1 block	Tau fibril FP	HTT cytoprotect	Tau fluor counter
> O=C1CC[C@@]2(O)[C@H]3Cc4ccc(O)c5c4[C@@]2(CCN3CC2CC2)[C@H]1O5
  3%	4%	.	-17%
> OCCOCCO
  -13%	.	38%	.
> O=C(O)C1C2CCC(O2)C1C(=O)O (configuration not stated)
  .	-3%	.	-14%
> O=c1[nH]cc(F)c(=O)[nH]1
  5%	-7%&2%&5%&1%	-161%[inhibitor]	-10%&-8%&-2%&-6%
> O=C1CC[C@@]2(O)[C@H]3Cc4ccc(O)c5c4[C@@]2(CCN3CC2CC2)[C@@H]1O5
  .	-2%	-6%	-1%
> c1ccc2c(c1)-c1cccc3c1c-2cc1ccccc13
  45%[activator]	.	-61%[inhibitor]	.
> O=C1CC[C@@]2(O)C3Cc4ccc(O)c5c4C2(CCN3CC2CC2)[C@H]1O5 (some centres not stated)
  .	-5%&-4%	-12%	-7%&-3%
> Cc1cccc([N+](=O)[O-])c1
  -2%	.	-9%	.

Whole records, quoted from the list. Order of screens: L3MBTL1 block | Tau fibril FP | HTT cytoprotect | Tau fluor counter
Listed for O=C(O)C1C2CCC(O2)C1C(=O)O (configuration not stated) = . | -3% | . | -14%
Listed for Cc1cccc([N+](=O)[O-])c1 = -2% | . | -9% | .
Listed for O=c1[nH]cc(F)c(=O)[nH]1 = 5% | -7%&2%&5%&1% | -161%[inhibitor] | -10%&-8%&-2%&-6%
Listed for O=C1CC[C@@]2(O)[C@H]3Cc4ccc(O)c5c4[C@@]2(CCN3CC2CC2)[C@H]1O5 = 3% | 4% | . | -17%

Another view of four compounds above:
> O=C1CC[C@@]2(O)[C@H]3Cc4ccc(O)c5c4[C@@]2(CCN3CC2CC2)[C@@H]1O5
- L3MBTL1 block = .
- Tau fibril FP = -2%
- HTT cytoprotect = -6%
- Tau fluor counter = -1%

> Cc1cccc([N+](=O)[O-])c1
- L3MBTL1 block = -2%
- Tau fibril FP = .
- HTT cytoprotect = -9%
- Tau fluor counter = .

> O=C1CC[C@@]2(O)[C@H]3Cc4ccc(O)c5c4[C@@]2(CCN3CC2CC2)[C@H]1O5
- L3MBTL1 block = 3%
- Tau fibril FP = 4%
- HTT cytoprotect = .
- Tau fluor counter = -17%

> OCCOCCO
- L3MBTL1 block = -13%
- Tau fibril FP = .
- HTT cytoprotect = 38%
- Tau fluor counter = .

The list is partial; rates above refer to the full screens.
